Screening results from PubChem.
BJeLR viability: kills HRASV12-expressing BJeLR cells | BJeLR (HRASV12) viability, CellTiter-Glo ATP luminescence, 48 h; reference of the scale not given here | inhibition, % (concentration not given with the values) | 0.17% of 300,000 active | AID 1554;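 active = replicate mean above 50%; inconclusive = above 50% but judged a plate artefact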;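 note: 50 nL library stock added to about 25 µL; numbers are from one replicate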
Bead autofluor: compound fluorescence in toxin protease inhibitor counterscreen; compound autofluorescence counterscreen, microsphere flow cytometry; stronger effect = higher value; fluorescence intensity (test concentration not listed); 3.1% of 360,000 active;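 active = at least 3 SD above the mean of all compounds, about 16000 in these data; inconclusive = too few beads counted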;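 note: 100 nL of 1 mM stock went into each well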
PrP 5UTR inh: suppresses PrP 5' UTR mRNA reporter expression; cell-based PrP 5' UTR mRNA reporter, plate reader; inhibition, % (test concentration not listed); 0.35% of 340,000 active; AID 488862;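 active = every replicate at 50% or more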;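 note: 0 = median of the neutral control wells; tested in H4 reporter cells; numbers are from one replicate; inactives centre near -14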
Mtb hypoxia inh: inhibitors of hypoxia-regulated fluorescent reporter in Mycobacterium tuberculosis. 0.1% of 300,000 active. M. tuberculosis hypoxia-regulated fluorescent reporter, fluorescence. fluorescence inhibition, % (test concentration not listed). AID 1159583;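 active = 35 to 45% if threefold the growth effect, above 45% if 1.5-fold the growth effect; inactive = the rest, general growth blockers included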;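 note: wells of about 50 µL received 100 nL stock; 0% = vehicle wells and 100% = reference inhibitor wells; whole bacteria with a GFP reporter of the hypoxia response; strong numbers were not always called active; many hits fall short of the cut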
RN4220 kill: S. aureus RN4220 growth inhibition; 0.33% of 330,000 active; inhibition, % (concentration not given with the values); OD600, 16 h;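 active = z-score of -3 or lower and OD600 up to 0.18 on both plates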;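 note: plate controls were untreated cells for no effect and reference antibiotic for full effect; stock transfer was 100 nL into about 80 µL; one replicate is shown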
ugtP null kill: compounds lethal to S. aureus RN4220 ugtP deletion mutant. OD600 growth, 16 h; some inactives read as strong as hits. growth inhibition, % (concentration not given with the values). 0.54% of 330,000 active;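 active = z-score under -3 and OD600 up to 0.15 on both plates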;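 note: plate controls were untreated wells for no effect and antibiotic for full effect; wells of about 80 µL received 100 nL stock; the first replicate is given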
Mtb hypoxia inh growth: further read-out of Mtb hypoxia inh, marked with its call; growth inhibition, %; measured here: M. tuberculosis growth (absorbance);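 0% = vehicle and 100% = reference antibiotic; read after six days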
* = called active by the depositor.

How did CCOC(=O)c1ccc(NS(=O)(=O)c2cc(C)ccc2OC)cc1 do in these assays?
BJeLR viability: 9; Bead autofluor: 5514; PrP 5UTR inh: -45; Mtb hypoxia inh: 1; RN4220 kill: 6.3; ugtP null kill: 14; Mtb hypoxia inh growth: 9

Results for O=C(NNc1cccc(Cl)n1)c1ccc(Cl)cc1Cl ?
BJeLR viability: 1; Bead autofluor: 8860; PrP 5UTR inh: -34; Mtb hypoxia inh: 13; RN4220 kill: 5.3; ugtP null kill: -8; Mtb hypoxia inh growth: 9

How did Cc1ccc(S(=O)(=O)N2CCN(C(=O)c3ccccc3)CC2)cc1 do in these assays?
BJeLR viability: -3; Bead autofluor: 10407; PrP 5UTR inh: -22; Mtb hypoxia inh: 11; RN4220 kill: 1.6; ugtP null kill: 1; Mtb hypoxia inh growth: 12

What do the screens show for `CC(=O)Nc1ccc(S(=O)(=O)NCCC(=O)Nc2ncccc2C)cc1`?
BJeLR viability: 6; Bead autofluor: inconclusive; PrP 5UTR inh: -1; Mtb hypoxia inh: -3; RN4220 kill: -1.6; ugtP null kill: 1; Mtb hypoxia inh growth: 10

How did CCN(CC)c1ccc(NC(=O)c2ccc3c(c2)OCO3)c(C)c1 do in these assays?
BJeLR viability: 15; Bead autofluor: 3742; PrP 5UTR inh: -16; Mtb hypoxia inh: -1; RN4220 kill: 4.3; ugtP null kill: 3; Mtb hypoxia inh growth: 14

Results for NC(=S)N=Nc1c(O)[nH]c2c(Cl)cc(Cl)cc12 ?
Bead autofluor: 3210; PrP 5UTR inh: -14; Mtb hypoxia inh: 11; RN4220 kill: 1.3; ugtP null kill: 3; Mtb hypoxia inh growth: 11

Results for CCOc1ccc(NC(=O)N(Cc2ccc(C)cc2)Cc2ccccn2)cc1 ?
BJeLR viability: 2; Bead autofluor: 3795; PrP 5UTR inh: -8; Mtb hypoxia inh: 15; RN4220 kill: 0.1; ugtP null kill: 8; Mtb hypoxia inh growth: 12

How did C#CCN(CC=C)C(=O)C1CCC(=O)N(CCCc2ccccc2)C1 (configuration not stated) do in these assays?
BJeLR viability: -1; Bead autofluor: 3632; PrP 5UTR inh: -5; Mtb hypoxia inh: 19; RN4220 kill: 0.8; ugtP null kill: 6; Mtb hypoxia inh growth: 14

What do the screens show for `CCc1cccc2c1NC(=O)[C@]21[C@@H]2C(=O)N(Cc3ccccc3)C(=O)[C@@H]2[C@@H]2CCCN21`?
BJeLR viability: -9; Bead autofluor: 9527; PrP 5UTR inh: -13; Mtb hypoxia inh: 2; RN4220 kill: 6.4; ugtP null kill: -10; Mtb hypoxia inh growth: 4

How did Cc1cc(C(=O)N2CC=C(c3ccccc3)CC2)c2ccccc2n1 do in these assays?
BJeLR viability: 47; Bead autofluor: 6711; PrP 5UTR inh: 52*; Mtb hypoxia inh: 2; RN4220 kill: -2.1; ugtP null kill: 0; Mtb hypoxia inh growth: 0

What do the screens show for `Cc1ccc(C)c(OCC(=O)Nc2ccc(S(=O)(=O)Nc3ncccn3)cc2)c1`?
BJeLR viability: 2; Bead autofluor: 4746; PrP 5UTR inh: -19; Mtb hypoxia inh: 19; RN4220 kill: 4.2; ugtP null kill: -8; Mtb hypoxia inh growth: 2

What do the screens show for `CC(NC(=O)CNC(=O)C(Cc1ccccc1)NC(=O)OCc1ccccc1)C(N)=O` (configuration not stated)?
BJeLR viability: -4; Bead autofluor: 3232; PrP 5UTR inh: -18; Mtb hypoxia inh: -1; RN4220 kill: 1.6; ugtP null kill: 3; Mtb hypoxia inh growth: 13

What do the screens show for `O=C(Nc1ccc(Br)cc1)C1Cc2ccccc2OC1=NO` (configuration not stated)?
Mtb hypoxia inh: 5; RN4220 kill: 4.2; ugtP null kill: 7; Mtb hypoxia inh growth: -2

Results for O=C(CNC(=O)c1cccc(Br)c1)NN=Cc1cccs1 ?
Mtb hypoxia inh: -3; RN4220 kill: 0.1; ugtP null kill: 11; Mtb hypoxia inh growth: -6

Results for CCCNC(=O)COC(=O)c1c2c(nc3ccccc13)CCC2 ?
BJeLR viability: 2; Bead autofluor: 3610; PrP 5UTR inh: -22; Mtb hypoxia inh: 4; RN4220 kill: -0.4; ugtP null kill: 4; Mtb hypoxia inh growth: -7

Results for CC(C)NC(=O)c1onc(CSc2ccc(F)c(F)c2)c1C(=O)NC(C)C ?
BJeLR viability: 6; Bead autofluor: 3526; PrP 5UTR inh: 3; Mtb hypoxia inh: 18; RN4220 kill: 4.0; ugtP null kill: 12; Mtb hypoxia inh growth: 14

How did Cn1c(/C=C/c2cccc(Br)c2)nc2ccccc2c1=O do in these assays?
BJeLR viability: -17; Bead autofluor: 3613; PrP 5UTR inh: -23; Mtb hypoxia inh: 3; RN4220 kill: 3.7; ugtP null kill: -4; Mtb hypoxia inh growth: 18

How did CC1(C)CCC(=O)C=C1Nc1ccc(F)c(Cl)c1 do in these assays?
BJeLR viability: 10; Bead autofluor: 4226; PrP 5UTR inh: -21; Mtb hypoxia inh: 4; RN4220 kill: 1.5; ugtP null kill: 0; Mtb hypoxia inh growth: 3

What do the screens show for `COc1cc(C(=O)NN=Cc2ccccn2)cc(OC)c1OC`?
Mtb hypoxia inh: 9; RN4220 kill: 5.5; ugtP null kill: 9; Mtb hypoxia inh growth: 2

Results for CCCCNC(=O)CN1C(=O)NC(Cc2ccccc2)(Cc2ccccc2)C1=O ?
BJeLR viability: -6; Bead autofluor: 5687; PrP 5UTR inh: 1; Mtb hypoxia inh: 4; RN4220 kill: 1.9; ugtP null kill: 0; Mtb hypoxia inh growth: 17

How did Cc1[nH]c(=O)[nH]c(=O)c1/C=C/C(=O)O do in these assays?
BJeLR viability: 4; Bead autofluor: 4174; PrP 5UTR inh: -8; Mtb hypoxia inh: -1; RN4220 kill: 2.5; ugtP null kill: 6; Mtb hypoxia inh growth: 5

Results for COc1ccccc1CNC(=O)CN1CCN(c2ccc(C(C)=O)cc2)CC1 ?
BJeLR viability: -3; Bead autofluor: 4648; PrP 5UTR inh: -6; Mtb hypoxia inh: -3; RN4220 kill: 9.6; ugtP null kill: 10; Mtb hypoxia inh growth: -11

How did COC(=O)C1=C(C)N(CCCC(=O)O)C(=O)NC1c1ccc2c(c1)OCO2 (configuration not stated) do in these assays?
BJeLR viability: 7; Bead autofluor: 3592; PrP 5UTR inh: -15; Mtb hypoxia inh: 6; RN4220 kill: 0.9; ugtP null kill: -11; Mtb hypoxia inh growth: 6

What do the screens show for `CC(=NN=C(N)SC1CC(=O)N(c2ccc(Cl)c(Cl)c2)C1=O)c1cccs1` (configuration not stated)?
Mtb hypoxia inh: 2; RN4220 kill: 100*; ugtP null kill: 99*; Mtb hypoxia inh growth: -2

What do the screens show for `O=C(NCCOC(=O)c1cccs1)c1cccnc1`?
BJeLR viability: -8; Bead autofluor: 2370; PrP 5UTR inh: 0; Mtb hypoxia inh: -4; RN4220 kill: 0.4; ugtP null kill: 3; Mtb hypoxia inh growth: 2

What do the screens show for `CCN(CC)c1ccc(C=Nn2c(C)nc3ccccc3c2=O)cc1`?
Mtb hypoxia inh: 7; RN4220 kill: 3.1; ugtP null kill: 8; Mtb hypoxia inh growth: 2

How did O=C(CCCn1c(=S)[nH]c2cc3c(cc2c1=O)OCO3)N1CCc2ccccc2C1 do in these assays?
BJeLR viability: 1; Bead autofluor: 5936; PrP 5UTR inh: -17; Mtb hypoxia inh: 14; RN4220 kill: 5.4; ugtP null kill: 17; Mtb hypoxia inh growth: 2

Results for CCOC(=O)CSc1nnc(NC(=O)c2cc([N+](=O)[O-])cc([N+](=O)[O-])c2)s1 ?
BJeLR viability: 0; Bead autofluor: 2139; PrP 5UTR inh: -43; Mtb hypoxia inh: 8; RN4220 kill: 5.8; ugtP null kill: 3; Mtb hypoxia inh growth: 4

How did Cc1cccc(NC(=O)Cn2nc([N+](=O)[O-])c(Br)c2C)n1 do in these assays?
BJeLR viability: 7; Bead autofluor: 4192; PrP 5UTR inh: -52; Mtb hypoxia inh: 11; RN4220 kill: 7.3; ugtP null kill: 6; Mtb hypoxia inh growth: 10

How did O=C1C(=Cc2cccnc2)Sc2ccccc21 do in these assays?
Mtb hypoxia inh: 10; RN4220 kill: 20; ugtP null kill: -7; Mtb hypoxia inh growth: 10

How did NNC(=O)/C(=C\c1cccs1)NC(=O)c1ccccc1 do in these assays?
BJeLR viability: 17; Bead autofluor: 2463; PrP 5UTR inh: 6; Mtb hypoxia inh: 2; RN4220 kill: 3.4; ugtP null kill: 3; Mtb hypoxia inh growth: 2

Results for Cc1cc(F)ccc1NCC(=O)Nc1ccccc1Br ?
BJeLR viability: 2; Bead autofluor: 1886; PrP 5UTR inh: -3; Mtb hypoxia inh: 1; RN4220 kill: 10; ugtP null kill: 7; Mtb hypoxia inh growth: 4

How did Cc1nc(SCC(=O)N2CCOCC2)c2c(=O)n(C)c(=O)n(CC(C)C)c2n1 do in these assays?
Bead autofluor: 3768; PrP 5UTR inh: -18; Mtb hypoxia inh: 3; RN4220 kill: 4.3; ugtP null kill: 9; Mtb hypoxia inh growth: 7

How did Cc1csc(NC(=O)CSC2=NS(=O)(=O)c3ccccc3N2)n1 do in these assays?
BJeLR viability: 6; PrP 5UTR inh: -3; Mtb hypoxia inh: -6; RN4220 kill: -4.3; ugtP null kill: -4; Mtb hypoxia inh growth: 6

What do the screens show for `O=C(COc1ccccc1Cl)N1CCCCCCC1`?
BJeLR viability: -3; Bead autofluor: 4269; PrP 5UTR inh: -19; Mtb hypoxia inh: 21; RN4220 kill: 1.4; ugtP null kill: -3; Mtb hypoxia inh growth: 6

How did C#C[C@@]1(O)CCC2C3CCC4=C/C(=N/OCC(=O)NC(C(=O)O)C(C)O)CC[C@]4(C)C3CC[C@@]21C (some centres not stated) do in these assays?
BJeLR viability: -1; Bead autofluor: 3767; PrP 5UTR inh: -25

What do the screens show for `CC1=NN(S(=O)(=O)c2ccc(F)cc2)C(=O)c2ccccc2O1`?
BJeLR viability: -5; Bead autofluor: 3346; PrP 5UTR inh: -4; RN4220 kill: 5.5; ugtP null kill: 2

What do the screens show for `C=CCn1c(-c2cccnc2Cl)nc2ccccc21`?
BJeLR viability: -12; Bead autofluor: 2822; PrP 5UTR inh: -7; Mtb hypoxia inh: -12; RN4220 kill: -1.6; ugtP null kill: -3; Mtb hypoxia inh growth: 12

Results for Cc1cccc(N2CCN(CC3CCCCC3)CC2)c1C ?
BJeLR viability: 2; Bead autofluor: 3483; PrP 5UTR inh: -27; Mtb hypoxia inh: 7; RN4220 kill: -0.6; ugtP null kill: 12; Mtb hypoxia inh growth: 19

What do the screens show for `O=c1c(-c2ccco2)[n+]([O-])c2ccccc2n1OCc1ccccn1`?
Bead autofluor: 4209; PrP 5UTR inh: -17; Mtb hypoxia inh: 9; RN4220 kill: 4.9; ugtP null kill: 8; Mtb hypoxia inh growth: 6

Results for CCCCNCCOc1ccccc1-c1ccccc1 ?
BJeLR viability: 7; Bead autofluor: 9135; PrP 5UTR inh: -23; RN4220 kill: 6.2; ugtP null kill: -10

Results for Cc1ccc(C)c(NC(=S)NC(=O)c2cncc(Br)c2)c1 ?
BJeLR viability: 0; Mtb hypoxia inh: -2; RN4220 kill: 1.5; ugtP null kill: 12; Mtb hypoxia inh growth: 5

How did O=C(Nc1cccc(S(=O)(=O)N2CCCCC2)c1)C1CC(=O)N(Cc2ccccc2)C1 (configuration not stated) do in these assays?
Bead autofluor: 3892; PrP 5UTR inh: -53; Mtb hypoxia inh: 8; RN4220 kill: 1.5; ugtP null kill: -3; Mtb hypoxia inh growth: 4

Results for COC(=O)C1=C(c2ccc3ccccc3c2)C[C@@H]2CC[C@H]1N2C(=O)NC1Cc2ccccc2C1 ?
Bead autofluor: 4670; PrP 5UTR inh: -20; Mtb hypoxia inh: -4; RN4220 kill: -12; ugtP null kill: -18; Mtb hypoxia inh growth: 8
